# Compound activity (PubChem)
# RE007 growth inh – qHTS Assay for Inhibitors of the HIV-1 protein Vpr; actives 0.21% (n = 360,000); S. pombe RE007 Vpr strain, BacTiter-Glo ATP luminescence, 24 h; control for the full effect not named in the record; AID 651644, 2012; Potency, µM (top dose mostly 92.2 µM), for inactives: top-dose activity change, negative = less growth; active = well fitted falling curve with a large enough effect; inconclusive = small, poorly fitted or top-dose-only effect; inactive = no such curve, though single readings can be large or run the other way;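 also: % is scaled to controls: 0 for no effect and ±100 for the full control effect; nearly all actives have a fitted effect of over 50% in size; the assay follows cell death caused by Vpr and the record does not say whether a fall means rescue or toxicity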
#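 Fission yeast strain RE007, carrying one chromosomally integrated HIV-1 vpr copy, was seeded at OD 0.01 in PMG+AL medium with 23 nL pinned compound. After 24 h at 30 °C and 99% humidity, viability was read by BacTiter-Glo luminescence.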
# SARS PLP yeast – qHTS of Yeast-based Assay for SARS-CoV PLP | S. cerevisiae expressing SARS-CoV PLpro, growth rescue; control for the full effect not named in the record | Potency, µM (doses to about 32.9 µM), inactives show at the highest dose activity, positive = growth rescue | actives 0.19% (n = 330,000); active means well fitted rising curve with a large enough effect; inconclusive means small, poorly fitted or top-dose-only effect; inactive means no such curve, though single readings can be large or run the other way; also: 0% is about no effect; nearly all actives have a fitted effect of over 55% in size; growth read by luminescence after 48 h
# 2A StopGo – High Throughput Screening for Foot and Mouth Disease Virus Antivirals; human cells with a luciferase reporter of 2A StopGo recoding; control for the full effect not named in the record; Potency, µM (highest dose often 57.9 µM), inactives show top-dose signal change, negative = less light; actives 1.2% (n = 410,000); AID 1159524, 2015; active = well fitted falling curve with a large enough effect; inconclusive = small, poorly fitted or top-dose-only effect; inactive = no such curve, though single readings can be large or run the other way; tested in HEK293T cells; also: % is scaled to controls: 0 for no effect and ±100 for the full control effect; nearly all actives have a fitted effect of over 45% in size; luciferase light after 4 h
# Numbers without * were called inactive; ? = inconclusive; [ ] = remark or other dose. Potency is read from the fitted curve at half-maximal effect. A portion of the library; the hit share may differ from the screen's.
entry	compound	2A StopGo	SARS PLP yeast	RE007 growth inh
1	CC1Cc2ccccc2N1C(=O)C(C)n1cc(C(F)(F)F)cc(Cl)c1=O (stereo not drawn)	-29%	-1%	-2%
2	C#CNC(=O)C1(CC=C)CCNCC1	-2%	3%	-3%
3	COc1cc(C(C)=O)ccc1OCC(=O)Nc1ccc2nc(C)sc2c1	-13%	-1%	-9%
4	C=CCn1c(SCC(=O)Nc2cccc(S(N)(=O)=O)c2)nnc1C1CCCCC1	-4%	5%	3%
5	NC(=O)C1CCN(C(=O)c2ccc(Cl)c(S(=O)(=O)NCc3ccco3)c2)CC1	-10%	-1%	-8%
6	Cc1cccc(C)c1NC(=O)CNC(=O)CN1C(=O)NC2(CCc3ccccc32)C1=O (stereo not drawn)	-7%	3%	6%
7	NS(=O)(=O)c1ccc(CCNC(=O)CSc2nnc3ccccn23)cc1	-13%	3%	-3%
8	C[C@H](CO)N1C[C@H](C)[C@@H](CN(C)Cc2ccc(C(=O)O)cc2)Oc2c(NC(=O)Cc3ccccc3)cccc2C1=O	-3%	11µM*	37%
9	CC1CCCCC12NC(=O)N(CC(=O)N1CCN(Cc3ccc(C#N)cc3)CC1)C2=O (stereo not drawn)	?	5%	2%
10	CCOc1ccccc1-n1nnnc1SCC(=O)NCC1(N2CCOCC2)CCCCC1	-17%	-1%	-14%
11	COc1cc(NC(=O)c2ccccc2)c(OC)cc1NC(=O)CN1C(=O)NC2(CCCCC2)C1=O	-15%	-2%	3%
12	COc1ccc(-c2c(C#Cc3ccsc3)c3cc(-c4ccc(CN5CCOCC5)cc4)ccc3n2C)cc1	-15%	-41%	-8%
13	CCOc1ccc(N2C(=O)c3ccccc3NC2(C)CC)cc1 (stereo not drawn)	49%[activator]	-2%	-10%
14	N#Cc1ccc(OCC(=O)Nc2nc(-c3cccnc3)cs2)cc1	-15%	2%	2%
15	COc1ccc(Cl)cc1NC(=O)C1CCN(C(=O)Nc2ccccc2)CC1	-9%	-6%	-6%
16	C=CC[C@H](CC(=O)N(CCO)Cc1ccccc1)C(=O)N[C@H](COC(=O)[C@H](CC=C)CC(=O)OC(C)(C)C)Cc1ccccc1	0%	9%	4%
17	CNC(=O)c1cc(Oc2ccc(NC(=O)Nc3ccc(Cl)c(C(F)(F)F)c3)cc2)ccn1	20µM*	0%	1%
18	CC(C)(C)c1ccc(C(=O)NNC(=O)CNC(=O)c2cccs2)cc1	11%	-1%	-8%
19	N#CCC(=O)Nc1ncc(Cc2ccccc2Cl)s1	-10%	-2%	8%
20	COc1ccc(NC(=O)c2ccc(-c3ccc(C(C)=O)cc3)o2)cn1	-9%	-3%	10%
21	CC(C)CN(C(=O)CSc1ncnc2sccc12)C1CCS(=O)(=O)C1 (stereo not drawn)	-22%	10%	1%
22	CCOc1ccc(NC(=S)N2CCN(c3ccc(N4CCOCC4)nn3)CC2)cc1	-21%	-3%	10%
23	Cc1ccc(OCC(=O)N2CCN(S(=O)(=O)c3ccc(Cl)s3)CC2)cc1C	?	6%	-4%
24	CC(NC(=O)c1ccco1)C12CC3CC(CC(C3)C1)C2 (stereo not drawn)	-20%	-4%	-14%
25	COC(=O)C1=C(c2ccc3ccccc3c2)C[C@@H]2CC[C@H]1N2C(=O)N1CCC(C)CC1	?	3%	1%
26	C=CC1=C(C(=O)O)N2C(=O)[C@@H](NC(=O)/C(=N\OCC(=O)O)c3csc(N)n3)[C@H]2SC1	-1%	-4%	3%
27	Cc1ccc(NC(=S)N(N)CCO)cc1	41%[activator]	3%	0%
28	Cc1ccc(NC(=O)c2cccc(S(=O)(=O)NCc3ccccc3)c2)nc1	10%	-5%	-8%
29	COc1ccc(NC(=O)CN(C)C(=O)c2oc3c(ccc4ccccc43)c2C)cc1	-19%	-4%	10%
30	CCCCCOC(=O)NC1CCS(=O)(=O)C1 (stereo not drawn)	2%	3%	1%

# (continued)
entry	compound	2A StopGo	SARS PLP yeast	RE007 growth inh
31	COc1ccc(C(CNC(=O)COc2c(C)cc(C)cc2C)N2CCOCC2)cc1 (stereo not drawn)	-11%	9%	-7%
32	COc1ccc(-c2cc(CCC(=O)N3CCN(c4cc(C)ccc4C)CC3)[nH]n2)cc1	?	7%	7%
33	COCCn1c(Cc2ccccc2)nnc1SCC(=O)N1CCOCC1	-2%	2%	14%
34	O=C1N(c2ccccc2C(F)(F)F)OC1(Cc1ccccc1)c1ccccc1 (stereo not drawn)	-29%	-2%	-9%
35	CCc1cn(C2CC(O)C(CO)O2)c(=O)[nH]c1=O (stereo not drawn)	-11%	-1%	-11%
36	O=c1c2ccccc2oc2c1oc1ccccc12	43%[activator]	-10%	?
37	Cc1cc(Cl)c(C)c(S(=O)(=O)Oc2ccccc2NC(=O)CCC(=O)O)c1Cl	-20%	5%[6.58 µM]	1%
38	O=C(OCC(=O)C12CC3CC(CC(C3)C1)C2)c1ccc(O)cc1	1%	-3%	18%
39	CC(C)(C)CNC(=O)[C@]1(C)CCC[C@@]2(C)C3CC[C@@]4(C)C[C@]3(CCC21)CC4=O (stereo partly drawn)	-8%	0%	2%
40	O=C(NCc1ccccn1)c1cc(S(=O)(=O)N2CCCCC2)ccc1Cl	-19%	2%	-10%
41	COc1ccc(OC)c(C(C)NS(=O)(=O)c2cccs2)c1 (stereo not drawn)	-18%	-3%	-4%
42	CC[C@@]1(C(=O)OC)N[C@H](CN(C)C(=O)c2ccc(C)cc2)[C@@H]2C(=O)N(C)C(=O)[C@@H]21	-12%	9%	-3%
43	CCc1c(C)sc(NC(=O)c2cc(C(C)C)on2)c1C#N	-6%	3%	-23%
44	C=CC[C@H](CC(=O)N(CCO)Cc1ccccc1)C(=O)N[C@@H](COC(=O)[C@@H](CC=C)Cc1ccc(F)cc1)Cc1c[nH]c2ccccc12	?	3%	-5%
45	COc1ccccc1NC(=O)C(C)OC(=O)CSCC(=O)Nc1cc(C)on1 (stereo not drawn)	-2%	-1%	24%
46	Cc1ccc(CNC(=O)C2CC(=O)N(CCC(C)C)C2)cc1 (stereo not drawn)	-2%	1%	-14%
47	O=C(OCc1c(-c2ccccc2)ncc2ccccc12)c1ccco1	?	2%	-11%
48	COc1ccccc1C(=O)OCc1c(-c2ccccc2)ncc2ccccc12	?	-7%	3%
49	O=C(OCc1cc(=O)n2ccsc2n1)c1ccc(O)cc1O	47%[activator]	2%	3%
50	COc1cccc(NC(=O)CN(C)C(=O)CN2C(=O)NC(C)(c3ccc(C)cc3)C2=O)c1 (stereo not drawn)	-7%	1%	-5%
51	CCOC(=O)CCC(=O)Nc1cc(S(=O)(=O)N2CCOCC2)ccc1N1CCCCC1	-12%	2%	-7%
52	Cc1ccccc1Oc1cc(NC(=O)Cn2cnc([N+](=O)[O-])c2)cc([N+](=O)[O-])c1	-21%	1%	-19%
53	COc1ccc(C2c3c(c(C)c(C)oc3=O)Oc3c(C)c(C)oc(=O)c32)cc1	-4%	-7%	13%
54	COc1cc(CNS(=O)(=O)CCl)cc(OC)c1OC	-18%	-4%	5%
55	O=C1c2cccnc2C(Nc2ccc(F)c(Cl)c2)N1Cc1cccs1 (stereo not drawn)	-22%	-2%	7%
56	C[C@@H]1COC(=O)[C@H](Cc2ccc(F)cc2)C/C=C\C[C@@H](CC(=O)NCCO)C(=O)N1	-10%	-1%	-2%
57	CC(NC(=O)NC(=O)c1ccc(F)cc1)C1CC1 (stereo not drawn)	61%[activator]	-5%	-12%
58	CC1O[C@@H](O[C@H](C)CC[C@@H](C)O)C(O)C[C@H]1O (stereo partly drawn)	-21%	1%	2%
59	CCN(c1ccccc1)S(=O)(=O)c1ccc(OC)c(NC(=O)Cc2ccc(F)cc2)c1	11%	5%	-8%
60	CC(=O)c1ccc(NC(=S)Nc2cccc(Cl)c2C)cc1	9%	-1%	2%

# Given with values under each structure: entries from further up
# Results follow in this order: 2A StopGo | SARS PLP yeast | RE007 growth inh
(41) COc1ccc(OC)c(C(C)NS(=O)(=O)c2cccs2)c1 (stereo not drawn)
  -18% | -3% | -4%
(42) CC[C@@]1(C(=O)OC)N[C@H](CN(C)C(=O)c2ccc(C)cc2)[C@@H]2C(=O)N(C)C(=O)[C@@H]21
  -12% | 9% | -3%
(43) CCc1c(C)sc(NC(=O)c2cc(C(C)C)on2)c1C#N
  -6% | 3% | -23%
(44) C=CC[C@H](CC(=O)N(CCO)Cc1ccccc1)C(=O)N[C@@H](COC(=O)[C@@H](CC=C)Cc1ccc(F)cc1)Cc1c[nH]c2ccccc12
  ? | 3% | -5%
(45) COc1ccccc1NC(=O)C(C)OC(=O)CSCC(=O)Nc1cc(C)on1 (stereo not drawn)
  -2% | -1% | 24%

# (next part)
entry	compound	2A StopGo	SARS PLP yeast	RE007 growth inh
61	Cc1ccc(S(=O)(=O)N2CCOCC2)cc1C(=O)OCC(=O)NC1CCCC(C)C1C (stereo not drawn)	?	4%	-21%
62	O=C(Cc1cccc(NC(=O)C2CCN(C(=O)C3CCCC3)CC2)c1)Nc1cccc(C(=O)N2CCCC2)c1	-23%	-1%	4%
63	C[C@H](CO)N1C[C@H](C)[C@@H](CN(C)C)Oc2c(NC(=O)Cc3ccccc3)cccc2C1=O	27%	-6%	7%
64	CCOc1ccc(C(=O)O[C@H]2[C@H](Cc3ccccc3)NS(=O)(=O)[C@H]3C[C@@H]4C=C[C@]23O4)cc1	39%[activator]	3%	-2%
65	Cc1cccc(C)c1NC(=O)COC(=O)CNC(=O)C1CCCCC1	-7%	-3%	9%
66	Cc1ccc(C)c(NC2=C(Cl)C(=O)OC2OC(C)C)c1 (stereo not drawn)	-4%	-8%	4%
67	Cc1ccc2c(CN3CCN(S(=O)(=O)c4ccccc4C(F)(F)F)CC3)cc(=O)oc2c1	?	4%	-4%
68	COc1ccccc1N1CCN(/N=C/c2cc([N+](=O)[O-])ccc2Cl)CC1	-6%	3%	4%
69	Cc1c(NC(=O)CN2CCN(c3ccc(O)cc3)CC2)c(=O)n(-c2ccccc2)n1C	5%	0%	0%
70	CC(OC(=O)c1ccc(-n2cnnn2)cc1)C(=O)Nc1ccccc1[N+](=O)[O-] (stereo not drawn)	-17%	-6%	1%
71	CCN(CC(=O)NCc1cccs1)S(=O)(=O)c1ccc(NC(C)=O)cc1	-2%	-1%	-3%
72	O=C(Nc1ccccc1)c1nc[nH]c1C(=O)NCCCNC(=O)c1[nH]cnc1C(=O)Nc1ccccc1	-19%	9%	1%
73	Nc1cccc(C#Cc2ccc3c(=O)c4ccccc4oc3c2)c1	19%	8%	-5%
74	COC(=O)[C@@]1(C)[C@H]2C(=O)N(Cc3ccccc3)C(=O)[C@H]2[C@H]2CN=C(SCc3ccc(C#N)cc3)N21	0%	6%	-18%
75	Nc1c(N(Cc2ccco2)C(=O)COc2ccccc2)c(=O)[nH]c(=O)n1Cc1ccccc1	-22%	3%	5%
76	CCN(CC(=O)Nc1ccc(NC(C)=O)cc1)C(=O)CSC(=S)N1CCCC1	5%	-3%	3%
77	Cn1cccc1C(=O)c1cccc([N+](=O)[O-])c1	-6%	-4%	-11%
78	Cn1c(-c2ccc(F)cc2)cc2onc(-c3c(F)cccc3Cl)c2c1=O	33%[activator]	-21%	-15%
79	COc1ccc2[nH]c3c(=O)n(CCCCCC(=O)NCCC(C)C)c(=S)[nH]c3c2c1	2%	-1%	4%
80	CC1O[C@@H](OC2C(O)C(O)C(CO)O[C@H]2OC2C[C@]3(C)C(CC(O)C4[C@@H]([C@]5(C)CC[C@@H](C(C)(C)O)O5)CC[C@]43C)[C@@]3(C)CCC(O)C(C)(C)C23)C(O)C(O)C1O (stereo partly drawn)	-16%	2%	6%
81	COc1ccc(CCNC(=O)Cc2ccc(NS(=O)(=O)c3ccc(F)cc3)cc2)cc1OC	-4%	-2%	15%
82	CCCCN(CCCNC(=O)Cn1ncc2ccsc2c1=O)Cc1ccccc1	-9%	2%	-7%
83	C[C@@H]1O[C@@H](O[C@@H]2C=C3CC[C@@H]4C(CC[C@]5(C)[C@@H](c6ccc(=O)oc6)CC[C@]45O)[C@@]3(C)CC2)[C@H](O)[C@H](O)[C@H]1O (stereo partly drawn)	?	3%	-14%
84	O=C(Nc1ccc(OC(F)(F)F)cc1)C1CCCN(C(=O)c2ccc(Cl)cc2)C1 (stereo not drawn)	-17%	-1%	0%
85	O=C(COCc1ccccc1)N[C@@H]1c2ccccc2CC[C@H]1OCc1ccccc1	-7%	?	7%
86	COc1ccc(/C=C/C(=O)OCC(=O)c2c[nH]c3ccccc23)cc1	-16%	6%	14%
87	COc1ccc(OCC(=O)NC(=O)c2ccccc2)c([N+](=O)[O-])c1	-4%	-1%	19%
88	Nc1cc(S(=O)(=O)Nc2ccccc2Cl)ccc1N1CCCCC1	23%	-19%	1%
89	CC(OC(=O)c1ccc([N+](=O)[O-])s1)C(=O)NC1CCCCC1C (stereo not drawn)	0%	-22%	3%
90	CCOc1cc(C(=O)NCc2ccccc2)ccc1OCC(=O)N1CCOCC1	-9%	0%	3%
91	CC1(C)NC(=O)N(CC(=O)N2CCN(c3ccc([N+](=O)[O-])cc3)CC2)C1=O	-21%	2%	9%
